Bioassay records (PubChem)
2A StopGo = FMDV 2A StopGo reporter, luciferase signal. human cells with a luciferase reporter of 2A StopGo recoding; control for the full effect not named in the record. Potency, µM (top dose mostly 57.9 µM), without a hit: at the top dose signal change, negative = less light. actives 1.2% (n = 410,000). AID 1159524; active = well fitted falling curve with a large enough effect; inconclusive = small, poorly fitted or top-dose-only effect; inactive = no such curve, though single readings can be large or run the other way; tested in HEK293T cells; further: on the % scale 0 is the no-effect control and ±100 the full control effect; nearly all actives have a fitted effect of over 45% in size; luciferase light after 4 h
RE007 growth inh = less growth of the S. pombe RE007 Vpr strain; actives 0.21% (n = 360,000); AID 651644; Potency, µM (highest dose often 92.2 µM), for inactives: at the top dose activity change, negative = less growth; S. pombe RE007 Vpr strain, BacTiter-Glo ATP luminescence, 24 h; control for the full effect not named in the record; active = well fitted falling curve with a large enough effect; inconclusive = small, poorly fitted or top-dose-only effect; inactive = no such curve, though single readings can be large or run the other way;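 further: on the % scale 0 is the no-effect control and ±100 the full control effect; nearly all actives have a fitted effect of over 50% in size; the assay follows cell death caused by Vpr and the record does not say whether a fall means rescue or toxicity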
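Fission yeast strain RE007, carrying one chromosomally integrated HIV-1 vpr copy, was seeded at OD 0.01 in PMG+AL medium with 23 nL pinned compound. After 24 h at 30 °C and 99% humidity, viability was read by BacTiter-Glo luminescence.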
NS1 function inh = inhibitors of influenza NS1 protein function; S. cerevisiae slowed by influenza A NS1, growth recovery by OD600; Potency, µM (highest dose often 46.1 µM), inactives show at the top dose activity, positive = more growth; actives 0.4% (n = 270,000); AID 2326; active means well fitted rising curve with a large enough effect; inconclusive means small, poorly fitted or top-dose-only effect; inactive means no such curve, though single readings can be large or run the other way; further: nearly all actives have a fitted effect of over 50% in size
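Recovery from NS1-induced slow growth read by OD600 in budding yeast switched to galactose assay medium (pH 6.0, -URA) at 1:100 dilution. Compound 23 nl per well; the matching strain lacking NS1 serves as control.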
Cruzain inh noDet = blocks cruzain activity in detergent-free assay. P25779. purified cruzain, Z-FR-AMC fluorescence, no detergent. Potency, µM, for inactives: max response, negative = inhibition, most hits filed as inhibitors. actives 2.3% (n = 200,000);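 further: plate controls were enzyme without inhibitor for no effect and buffer without enzyme for full effect; nearly all actives have a fitted effect of over 40% in size; top concentration of the series not given in the record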
Target sequence (P25779 123-467 limits assumed): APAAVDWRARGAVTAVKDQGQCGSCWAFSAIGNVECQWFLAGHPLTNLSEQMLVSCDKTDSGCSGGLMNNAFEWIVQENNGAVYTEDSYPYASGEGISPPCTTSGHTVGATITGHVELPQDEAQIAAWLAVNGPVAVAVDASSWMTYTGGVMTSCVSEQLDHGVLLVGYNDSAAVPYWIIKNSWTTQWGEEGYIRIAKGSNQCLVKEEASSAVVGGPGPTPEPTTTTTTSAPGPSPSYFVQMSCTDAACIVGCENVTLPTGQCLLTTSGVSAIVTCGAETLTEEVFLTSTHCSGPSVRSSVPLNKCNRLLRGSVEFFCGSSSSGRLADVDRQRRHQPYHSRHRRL
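Purified cruzain at 1.5 nM, pre-incubated 15 min with compound at room temperature in 100 mM sodium acetate pH 5.5, 5 mM DTT, 0.00005% Triton X-100. Reaction started with 2 uM Z-FR-AMC; AMC fluorescence increase over 60 s gives rate.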
SARS PLP yeast = inhibitors of SARS-CoV papain-like protease in yeast. AID 485353. S. cerevisiae expressing SARS-CoV PLpro, growth rescue; control for the full effect not named in the record. Potency, µM (top dose mostly 32.9 µM), for the others: at the highest dose activity, positive = growth rescue. actives 0.19% (n = 330,000); active means well fitted rising curve with a large enough effect; inconclusive means small, poorly fitted or top-dose-only effect; inactive means no such curve, though single readings can be large or run the other way; further: 0% is about no effect; nearly all actives have a fitted effect of over 55% in size; growth read by luminescence after 48 h
Cruzain Triton = blocks cruzain activity in presence of Triton detergent. Potency, µM, without a hit: max response, negative = inhibition, most hits filed as inhibitors. P25779. actives 0.43% (n = 200,000). purified cruzain, Z-FR-AMC fluorescence, 0.01% Triton;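 further: plate controls were neutral wells for no effect and buffer without enzyme for full effect; nearly all actives have a fitted effect of over 40% in size; top concentration of the series not given in the record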
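Cysteine protease activity tested under reducing, mildly acidic conditions (100 mM sodium acetate pH 5.5, 5 mM DTT) plus 0.01% Triton X-100. Cruzain 1.5 nM; substrate Z-FR-AMC 2 uM; 15 min compound preincubation at room temperature.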
Marburg entry inh = Marburg virus entry inhibition; Marburg virus pseudotyped entry inhibition, cell reporter; control for the full effect not named in the record; about a third of the inactives were read at about 46 µM; Potency, µM (titrated, usually from 37.8 µM), without a hit: top-dose activity change, negative = inhibition, actives largely listed as inhibitors; actives 1.8% (n = 300,000); AID 540276; active = well fitted inhibition curve with a large enough effect; inconclusive = small, poorly fitted or top-dose-only effect, or effect the other way; inactive = flat fitted curve, though single readings scatter; tested in HEK293 cells; about a fifth of its hits are not listed in these tables; further: on the % scale 0 is the no-effect control and ±100 the full control effect; luciferase read-out
LASV entry inh = inhibitors of Lassa virus binding or cell entry. Lassa virus pseudotype entry inhibition, cell reporter; control for the full effect not named in the record. Potency, µM (titrated, usually from 37.9 µM), inactives show at the highest dose activity change, negative = inhibition, actives largely listed as inhibitors. actives 1.2% (n = 300,000); active means well fitted inhibition curve with a large enough effect; inconclusive means small, poorly fitted or top-dose-only effect, or effect the other way; inactive means flat fitted curve, though single readings scatter; tested in HEK293 cells; further: on the % scale 0 is the no-effect control and ±100 the full control effect; nearly all actives have a fitted effect of over 50% in size; luciferase read-out
Numbers without * were called inactive; u = inconclusive; x = not tested or not shown; & = joins results of further samples; [ ] = dose if it differs, or a comment. Unless noted, the call rests on the fitted dose curve; in most records, active means well fitted curve in the direction sought with a large enough effect; inconclusive means small, poorly fitted or top-dose-only effect, or another doubt; inactive means no such curve, though single readings can be large; an effect the other way counts as inactive or inconclusive. Potency means the concentration at half of the fitted maximal effect.

SMILES	2A StopGo	RE007 growth inh	NS1 function inh	Cruzain inh noDet	SARS PLP yeast	Cruzain Triton	Marburg entry inh	LASV entry inh
CCn1c(COc2ccccc2C)nnc1SCC(=O)Nc1cc(C)on1	16.0%	12.8%	-0.5%	-21.1%	-1.5%	-0.6%	u	9.7%
CC(=O)Nc1ccc(S(=O)(=O)Nc2nc3cc4c(cc3nc2Cl)OCCO4)cc1	8.4%	8.4%	8.5%	x	0.4%	x	11.3%[46.1 µM]	3.5%
O=C(CSc1cn(CC(=O)N2CCCC2)c2ccccc12)Nc1cc(C(F)(F)F)ccc1Cl	-15.9%	x	x	u	x	-5.8%	x	0.0%[46.1 µM]
N#Cc1ccccc1Sc1ccccc1C(=O)NCC(c1ccco1)N1CCCC1 (stereo unspecified)	5.0%	-13.3%	x	x	-2.3%	x	7.8%	-35.5%
Cc1ccc(CCNC(=O)c2ccc(NC(=O)N3CCSc4ccccc43)cc2)cc1	-21.7%	x	x	-0.8%	x	-3.8%	1.8%[46.1 µM]	u
O=C(NC1(C(F)(F)F)Oc2ccc(Cl)cc2O1)N1CCC2(CC1)OCCO2 (stereo unspecified)	-15.4%	17.4%	-8.0%	5.8%	6.8%	1.4%	u	-24.6%
CC1=CC2=NC(=O)CC(C)(C(=O)N(CC(=O)NC3CCCC3)c3ccccc3C)N2C=C1 (stereo unspecified)	-17.5%	-4.6%	6.8%	x	1.2%	x	x	x
O=C(CCN1C(=O)/C(=C\c2ccccc2F)SC1=S)N1CCCCC1	-20.2%	-0.7%	-5.8%	x	-3.9%	x	x	x
CCCc1cc(C(=O)Nc2ccc(C(=O)c3ccc(F)cc3)cc2)n(C)n1	u	-19.6%	-44.1%	x	-13.8%	x	x	x
Fc1cccc(/C=N/Nc2nc3ccccc3[nH]2)c1	7.2%	-16.5%	-32.4%	x	-1.7%	x	-5.5%[46.1 µM]	-8.9%[46.1 µM]
Cc1noc(C(=O)Nc2cccc(Cl)c2)c1Cl	27.7%	-11.4%	-2.3%	x	-4.1%	x	x	x
CC(=C/C(=O)O)/C=C/c1cccs1	-9.2%	-11.2%	-109.5%	-18.6%	-1.7%	-0.6%	15.5%	9.8%
CC(=O)N(Cc1ccco1)c1nc(C(=O)Nc2ccc(Cl)cc2)c(C)s1	-28.2%	4.0%	-8.0%	-12.5%	-12.4%	-15.7%	-5.3%	-3.6%
c1ccc(CNc2ncnc3[nH]ncc23)cc1	u	2.1%	x	-8.4%	x	-0.1%	-1.3%[46.1 µM]	9.9%&-29.6%[46.1 µM]
Cc1cccc(N(C(=O)Cn2nnc3ccccc32)C(C(=O)NCc2ccco2)c2ccncc2)c1 (stereo unspecified)	18.2%	7.7%	-5.2%	3.8%	3.2%	-2.8%	-11.1%&-11.1%[46.1 µM]	17.2%
CC(=O)c1cc(NC(=O)c2ccc(Cl)cc2)c(=O)oc1/C=C/N(C)C	13.1%	-12.5%	5.4%	6.9%	-3.1%	-12.3%	2.7%	u
Cc1ccc(/C=N/NC(=O)CNC(=O)COc2ccccc2)o1	-17.9%	0.3%	3.8%	10.0%	-13.2%	-5.4%	13.7%	19.8%
C[C@@H](C(=O)Nc1ccccc1N1CCOCC1)N1C(=O)C2CC=CCC2C1=O (stereo partly specified)	-10.1%	1.7%	17.3%	1.6%	-1.9%	0.5%	7.9%	1.9%
O=C(NN=Cc1c(O)ccc2ccccc12)c1ccncc1	3.3%	2.4%	x	x	x	x	3.16µM*	3.16µM*
CCOc1ccc2c(c1)C(C)=CC(C)(C)N2	0.0%&4.1%	17.4%	x	1.1%&12.0%&2.0%	6.2%	-1.6%&-4.1%&-5.2%	x	x
O=C(O)c1cccc(S(=O)(=O)N2CCCC2)c1	19.8%	6.5%	-1.6%	7.9%	1.8%	0.5%	1.3%	-14.5%[14.3 µM]
CCOc1ccc(S(=O)(=O)NCCC(=O)Nc2cccc(C(=O)OC)c2)cc1	17.9%	-1.3%	-7.9%	x	0.7%	x	u	18.0%
COc1ccc2c(c1)c1c(c(=O)n(-c3ccccc3)c(=O)n1CC(=O)NCCC1=CCCCC1)n2C	-1.6%	x	x	2.0%	x	-0.6%	x	4.5%[46.1 µM]
O=C(NC(=S)NCc1ccccc1)c1ccccc1[N+](=O)[O-]	-5.7%	6.9%	5.2%	x	1.1%	x	-6.1%[46.1 µM]	-17.9%[46.1 µM]
COC(=O)c1sccc1NC(=O)c1ccc(Br)s1	16.7%	7.2%	-3.2%	1.8%	15.4%	0.1%	u	-6.0%
CC1Cc2ccccc2N1C(=O)CCS(=O)(=O)c1ccc2c(c1)NC(=O)CS2 (stereo unspecified)	-21.3%	1.7%	7.3%	x	-2.4%	x	x	x
O=C(COc1ccc2oc3c(c2c1)CCCC3)Nc1ccc(Cl)cc1	-0.4%	x	x	2.5%	x	-6.1%	-1.8%[46.1 µM]	-3.9%[46.1 µM]
COc1ccc(CN2CCCC(C(=O)N3CCCCC3)C2)cc1OC (stereo unspecified)	-9.4%	-15.7%	3.7%	x	-0.5%	x	x	x
Cc1[nH]c2ccccc2c1-c1csc(NC(=O)CSCC(=O)O)n1	-8.2%	17.7%	3.7%	x	-0.2%	x	x	x
O=C1C2(c3ccccc3)CN3CN(C2)CC1(c1ccccc1)C3	2.1%	-10.1%	6.8%	-12.8%	-8.7%	2.9%	14.3%	6.7%
O=C(/C=C/c1ccccc1)Nc1ccc2c(c1)C(=O)NC2=O	20.4%	-0.6%	3.1%	x	1.0%	x	x	x
O=C(OC(C(=O)NC1CCCC1)c1ccccc1F)c1ccco1 (stereo unspecified)	-10.0%	4.4%	-14.9%	-7.7%	0.0%	-6.5%	-9.8%	u
CC(=O)Nc1ccc(S(=O)(=O)NN=CCCc2ccccc2)cc1	6.4%	1.8%	x	x	x	x	-4.5%[46.1 µM]	u
CN(C)C(N)=NCCC[C@H](N)C(=O)O	-12.1%	4.4%[18.4 µM]	-1.0%	6.6%	x	-5.5%	-6.3%&-13.2%&-13.2%&-13.2%	u
CCOc1ccccc1Nc1sc(C(=O)c2ccccc2)c(N)c1C(=O)Nc1ccccc1	-13.7%	x	x	u	x	-1.9%	x	u
O=C1C2CCCN2C(=O)N1CCN1CCN(c2ccccc2)CC1 (stereo unspecified)	5.5%	-5.0%	13.0%	15.6%	8.6%	-1.2%	u	3.8%
Cc1ccc2c(c1)-c1c(cnn1CC(=O)N1CCN(c3cc(Cl)ccc3C)CC1)CO2	-12.6%	x	x	3.2%	x	0.1%	-24.0%[46.1 µM]	x
CCN(C(=O)Nc1ccccc1)c1ccccc1	-5.3%	x	5.0%	3.1%	-19.4%	-0.9%	7.2%	-28.8%
CC(C)(C)c1ccc(C(=O)N2CCCN(C(=O)c3ccc(C(C)(C)C)cc3)CC2)cc1	u	1.6%	-2.3%	u	-12.7%	-6.8%	7.0%	1.4%
COc1ccc2c(c1OC)C(=O)OC2Nc1ccccn1 (stereo unspecified)	-6.8%	5.5%	2.7%	0.8%	8.0%	1.4%	9.1%	12.7%
Cc1cc(NC(=O)CCCOc2ccc(Cl)cc2Cl)no1	-13.3%	-3.7%	0.6%	-12.6%	-3.9%	7.1%	0.3%&-6.5%	-5.5%
COc1cc(CNc2ccc3[nH]c(=O)[nH]c3c2)ccc1OCc1ccccc1F	-15.2%&-17.5%	-18.5%	7.2%	-2.2%	-1.0%	-5.3%	u	-9.7%&-3.8%[46.1 µM]
O=C(O)/C(=C/c1ccco1)NC(=O)c1ccccc1	-17.6%	7.0%	2.8%	9.8%	7.7%	-7.4%	-0.3%	-2.5%
O=C(CN(Cc1ccco1)C(=O)c1ccc(Cl)cc1)Nc1ccc(Cl)c(Cl)c1	-18.9%	2.0%	12.5%	6.3%	6.7%	-7.0%	u	4.1%
Cc1ccc(-c2c(CN3CCN(c4cccc(C(F)(F)F)c4)CC3)csc2C)cc1	-17.2%	x	x	-5.9%	x	-6.9%	x	6.6%[46.1 µM]
O=C(Nc1ccccc1Cl)N1CCN(c2ccc3nncn3n2)CC1	-2.1%	14.2%	-2.5%	-6.4%	0.9%	-5.3%	x	x
Cc1cc(C)nc(Sc2ncnc3sc4c(c23)CCC4)n1	-18.8%	-0.8%	1.0%	-0.8%	-11.4%	-7.5%	3.4%	8.7%
O=[N+]([O-])c1c(NCc2ccco2)ccc2nonc12	-12.4%	-11.2%	5.4%	x	-1.2%	x	-9.1%[46.1 µM]	-6.5%
CC1=NN(c2nc(-c3ccc(Cl)cc3)cs2)C(=O)C1	-21.1%	12.5%	21.6%	7.94µM*	-7.5%	-18.7%	21.0%	-1.8%
Cc1cccc(C)c1OCC(=O)Nc1nnc(C2CCCO2)s1 (stereo unspecified)	-11.2%	-7.6%	-2.3%	-1.8%	8.1%	-4.2%	3.9%	u
O=C(Nc1ccccn1)c1cccnc1	23.6%	1.6%	2.4%	-1.0%	1.6%	-3.6%	-0.1%	-3.6%
O=C(Nc1ccc2ccccc2c1)c1cccc([N+](=O)[O-])c1	37.2%[activator]	u	-0.1%	x	0.7%	x	u	u
CN1C[C@H](CO)C[C@@H]2c3cccc4[nH]cc(c34)C[C@H]21	-10.2%	-2.9%	0.7%	x	3.3%	x	x	x
COc1ccc(C(=O)CSc2nnc3n2CCCN3C(=O)Nc2ccccc2)cc1	-18.4%	4.6%	6.9%	x	-0.7%	x	2.3%[46.1 µM]	29.6%[46.1 µM]
Cc1c(N(C)C(=O)C23CC4CC(CC(C4)C2)C3)c(=O)n(-c2ccccc2)n1C	5.6%	2.3%	3.4%	7.4%	7.8%	-1.5%	6.0%	9.4%
CCOc1ccccc1NC(=O)c1ccc2c(c1)CCN2S(=O)(=O)c1ccc(C)cc1	-20.2%	x	x	-1.2%	x	0.7%	2.5%[46.1 µM]	13.2%[46.1 µM]
Cc1onc(C(=O)NC2CCCCC2)c1[N+](=O)[O-]	6.9%	-7.3%	-1.2%	x	-4.8%	x	x	x
COC(=O)c1ccc(C(=O)OC)c(NC(=O)CN2CCN(c3ccccc3)CC2)c1	-12.8%	10.1%	-9.5%	-17.7%	u	5.0%	9.2µM*	u
